# HCMV NEC inh – inhibitors of HCMV UL50-UL53 interaction, biochemical, HTRF; inhibition, % (test concentration not listed); HCMV UL50-UL53 nuclear egress complex (human cytomegalovirus); AID 1918969, 2023; actives 0.15% (n = 190,000); normalized percent inhibition;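 active = both replicates at 50% or more, plus weaker picks with an unusually low signal ratio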;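 also: stock transfer was 100 nL into about 20 µL; 0% = negative control wells and 100% = wells with untagged competitor protein; inactives centre near -12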
# GIV-Gai inh – inhibitors of GIV peptide binding to Galpha-i3, primary screen, biochemical, fluorescence polarization, FITC-GIV GBA peptide, rat Galphai3. 90 min; active compounds read low; scaled: aluminum fluoride 0%, vehicle 100%. percent of control (FP), % (test concentration not listed). actives 0.42% (n = 210,000). Guanine nucleotide-binding protein G(i) subunit alpha-3 (Rattus norvegicus), P08753;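 active = replicate mean at 85% of control or lower, very high polarization wells dropped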;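 also: lower values mean more displacement of the GIV peptide from Galpha-i3; wells of about 15 µL received 100 nL stock; the first replicate is given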
# Target sequence (P08753 whole entry, looked up): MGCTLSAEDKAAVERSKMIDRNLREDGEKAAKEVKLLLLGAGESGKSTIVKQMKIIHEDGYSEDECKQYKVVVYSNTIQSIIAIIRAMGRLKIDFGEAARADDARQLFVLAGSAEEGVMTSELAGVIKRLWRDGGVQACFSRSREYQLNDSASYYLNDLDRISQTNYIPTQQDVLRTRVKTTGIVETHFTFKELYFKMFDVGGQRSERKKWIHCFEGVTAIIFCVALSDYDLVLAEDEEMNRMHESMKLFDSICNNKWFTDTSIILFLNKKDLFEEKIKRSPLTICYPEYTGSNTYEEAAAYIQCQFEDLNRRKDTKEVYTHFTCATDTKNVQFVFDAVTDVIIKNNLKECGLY
# Sa growth inh – S. aureus growth inhibition at 42 and 30 °C, primary screen, LtaS inhibitor project, RN4220, two temperatures. relative growth, % (no concentration beside the values). actives 0.53% (n = 170,000). OD600, 20 h, 42 °C; active compounds read low;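 active = growth at 42 °C up to 50% and 20 or more points under that at 30 °C, or under 10% at both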;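 also: 300 nL library stock went into each well; scaled to the means of positive and negative controls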
# Sa growth inh second temp – recorded beside Sa growth inh, whose call it bears; relative growth, %; measured here: growth at 30 °C;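 optical density after 20 h as mean of two plates; 100% = untreated growth and lower means inhibition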
# * hit, by the source's call; / = not tested or not shown; & = joins results of further samples.
[1] CCCCC(=O)Nc1onc2c1CC(C)CC2 (stereo unspecified)
[2] COC(=O)CCC(=O)Oc1ccc2ccccc2c1
[3] CN1CCN(c2ccc(C(=O)O)cc2NS(=O)(=O)c2ccc(Br)cc2)CC1
[4] CC(=O)N1CCOc2cc(S(=O)(=O)N3CCCC3)c(Cl)cc21
[5] COc1ccc(/C(C)=N/O)cc1CSc1ccccn1
[6] NC(=O)C1CCN(C(=S)NCCc2ccccc2)CC1
[7] COC(=O)C1=NN(c2ccccc2)C(=O)/C1=C\N(C)C
[8] CCc1oc2ccccc2c1/C=C/C(=O)O
assay / compound	1	2	3	4	5	6	7	8
GIV-Gai inh	103	99	104	102	108	102	106	/
Sa growth inh	/	101	/	94	125	106	93	107
HCMV NEC inh	-22	-5	-26	-19	0	-19	-62	-45
Sa growth inh second temp	/	116	/	91	84	90	90	98

[9] COc1ccc(CCNC(=O)C2COc3ccccc3C2)cc1OC (stereo unspecified)
[10] CCCNC(=O)C1CCN(c2cc(C)nc3c(-c4ccc(OC)c(OC)c4)c(C)nn23)CC1
[11] CCC1Cn2c(C(=O)N3CCCCC3)cc3c(Cl)ccc(c32)O1 (stereo unspecified)
[12] COc1cc(C(=O)Nc2ccccc2-c2nc(-c3ccccc3)no2)cc(OC)c1OC
[13] COc1ccc(CCNC(=O)c2nn(C)c3c2CSc2ccccc2-3)cc1OC
[14] COc1cccc2c1Oc1ncccc1N(c1ccc(C(=O)N3CCCC3)s1)C2
[15] O=C(Nc1ccc(F)cc1)c1ccc2c(=O)n3c(nc2c1)CCCCC3
[16] CC1CN(C(=N)N)CC(C)O1 (stereo unspecified)
assay / compound	9	10	11	12	13	14	15	16
GIV-Gai inh	99	107&106	103	101	103	107	106	105
Sa growth inh	83	89	/	96	111	95	99	102
HCMV NEC inh	/	-34&-3	-3	-3	-6	-72	/	-17
Sa growth inh second temp	88	91	/	91	89	61	96	94

# An excerpt from above in order of number of heavy atoms, rising:
[2] COC(=O)CCC(=O)Oc1ccc2ccccc2c1
[15] O=C(Nc1ccc(F)cc1)c1ccc2c(=O)n3c(nc2c1)CCCCC3
[14] COc1cccc2c1Oc1ncccc1N(c1ccc(C(=O)N3CCCC3)s1)C2
assay / compound	2	15	14
GIV-Gai inh	99	106	107
Sa growth inh	101	99	95
HCMV NEC inh	-5	/	-72
Sa growth inh second temp	116	96	61

# Later entries.
[17] CCOc1ccc(-c2nnc(SCC(=O)NCCc3ccccc3)nc2-c2ccc(OCC)cc2)cc1
[18] O=C(Cc1ccc(Cl)cc1)NCCCn1ccnc1
[19] Cc1cc(C)cc(NC(=O)NCCn2c(-c3ccncc3)nc3cccnc32)c1
[20] C=C(C)c1ccccc(=O)c1O
[21] CCc1ccc(CNC(=O)CN2C(=O)c3cccnc3Oc3ccc(C)cc32)cc1
[22] CCC1CSC(Nc2ccccc2)=N1 (stereo unspecified)
[23] CN(C)c1ccc(CN(CC2CCCO2)C(=O)c2ccc(F)cc2)cc1 (stereo unspecified)
[24] CNCc1ccccc1F
assay / compound	17	18	19	20	21	22	23	24
GIV-Gai inh	100	/	103	103	104	/	108	/
Sa growth inh	106	95	/	58	80	118	/	92
HCMV NEC inh	/	-15	-7	-55	/	9	-17	-35
Sa growth inh second temp	83	93	/	23	90	91	/	87

[25] Cc1cccc(CSc2nc3c(c(=O)[nH]2)C(c2ccc(O)c(O)c2)CC(=O)N3)c1 (stereo unspecified)
[26] COCCNC(=O)Cn1nc(C)c(NC(=O)c2cc(-c3ccc(F)cc3)no2)c1C
[27] O=C(CSc1ncccc1C(=O)O)NC1CCCCC1
[28] CC(C)(C)C(=O)Nc1ccncc1
[29] Cc1nc(Nc2ccc(S(N)(=O)=O)cc2)oc1C
[30] Clc1ccc(-c2nc(NCc3ccco3)c3ccccc3n2)c(Cl)c1
[31] O=C(Nc1ccc(Cl)cc1)c1nc(Nc2ccccc2)c2ccccc2n1
[32] COc1cccc(-c2ccnc3c(-c4ccc(F)cc4)c(C)nn23)c1
assay / compound	25	26	27	28	29	30	31	32
GIV-Gai inh	104	100	100	99	101	115	102	106&102
Sa growth inh	/	109	113	93	14	52	/	104
HCMV NEC inh	-15	-11	/	-15	-28	-18	-13	-6&-9
Sa growth inh second temp	/	90	86	88	11	21	/	92

# Already shown: an excerpt of the list.
[25] Cc1cccc(CSc2nc3c(c(=O)[nH]2)C(c2ccc(O)c(O)c2)CC(=O)N3)c1 (stereo unspecified)
[26] COCCNC(=O)Cn1nc(C)c(NC(=O)c2cc(-c3ccc(F)cc3)no2)c1C
[27] O=C(CSc1ncccc1C(=O)O)NC1CCCCC1
[28] CC(C)(C)C(=O)Nc1ccncc1
[29] Cc1nc(Nc2ccc(S(N)(=O)=O)cc2)oc1C
assay / compound	25	26	27	28	29
GIV-Gai inh	104	100	100	99	101
Sa growth inh	/	109	113	93	14
HCMV NEC inh	-15	-11	/	-15	-28
Sa growth inh second temp	/	90	86	88	11

# Later entries:
[33] O=C(Nc1ccccc1)N1CCn2cccc2C1Cc1ccccc1 (stereo unspecified)
[34] N#Cc1cn(-c2ccccc2)nc1-c1cccnc1
[35] CCc1ccnc(NC(=O)c2cccs2)c1
[36] Cc1ccc2c(c1)-c1onc(C(=O)NCCN3CCc4ccccc4C3)c1CO2
[37] CN1CCN(C(CNC(=O)c2cccc(F)c2)c2ccc(F)cc2)CC1 (stereo unspecified)
[38] O=C(Nc1ccccc1)OCC(CN1CCCCC1)OC(=O)Nc1ccccc1 (stereo unspecified)
[39] CCOC(=O)C1=C(O)/C(=C/c2ccc(N3CCOCC3)o2)SC1=Nc1ccc(OCC)cc1
[40] CC1COC(c2cccn2Cc2ccc(Cl)cc2)=N1 (stereo unspecified)
assay / compound	33	34	35	36	37	38	39	40
GIV-Gai inh	113	105	104	106	99	/	-15*	100
Sa growth inh	103	96	83	109	88	94	52	93
HCMV NEC inh	-9	-10	-20	/	-29	-50&-10	-22	/
Sa growth inh second temp	83	66	67	94	82	82	33	90

# Record cards, from the list above.
# CCc1ccnc(NC(=O)c2cccs2)c1 is listed with GIV-Gai inh: 104; Sa growth inh: 83; HCMV NEC inh: -20; Sa growth inh second temp: 67
# O=C(Nc1ccccc1)OCC(CN1CCCCC1)OC(=O)Nc1ccccc1 (stereo unspecified) is listed with GIV-Gai inh: /; Sa growth inh: 94; HCMV NEC inh: -50&-10; Sa growth inh second temp: 82
# CN1CCN(C(CNC(=O)c2cccc(F)c2)c2ccc(F)cc2)CC1 (stereo unspecified) is listed with GIV-Gai inh: 99; Sa growth inh: 88; HCMV NEC inh: -29; Sa growth inh second temp: 82

# (continued)
[41] CCCCc1ccc(N=Cc2nc(-c3ccc(Br)cc3)oc2O)cc1
[42] CCN(Cc1ccccc1)C(=O)c1cc(-c2ccc(C)c(C)c2)n[nH]1
[43] CN(c1ccccc1)c1ncnc2c1cnn2C
[44] O=C(c1ccc2c(c1)N(Cc1ccccc1F)C(=O)c1ccccc1S2(=O)=O)N1CCCC1
[45] O=C(Cn1ncc(Cl)c(Cl)c1=O)N1CCCCCC1
[46] N#Cc1ccc(NC(=O)c2ccc(Br)cc2)cc1
[47] O=C(O)c1nccnc1C(=O)Nc1ccc(Br)cc1F
[48] COc1cccc(NC(=O)Nc2cccc(-c3cn4cccnc4n3)c2)c1
assay / compound	41	42	43	44	45	46	47	48
GIV-Gai inh	107	104	103	99	/	/	101	103
Sa growth inh	/	103	110	104	107	99	/	99
HCMV NEC inh	-14	-15	/	-20	-64	-30	-22	-24
Sa growth inh second temp	/	86	94	80	75	77	/	87

[49] CCN1C2OC(C3OC4C(O3)N(CC)S(=O)(=O)N4CC)OC2N(CC)S1(=O)=O (stereo unspecified)
[50] CCOC(=O)N1CCN(c2cc(NCCC(=O)O)c3c4c(onc24)-c2ccccc2C3=O)CC1
[51] Cc1ccc(CNC(=O)c2ccc3nc4sc5c(c4c(=O)n3c2)CCCC5)cc1
[52] CCn1cc(/C=C(\NC(=O)c2ccccc2)C(=O)NCc2ccco2)c2ccccc21
[53] Cc1nc2sccn2c(=O)c1S(=O)(=O)N1CCN(c2ccc(F)cc2)CC1
[54] C=CCOC(=O)c1sc(N2C(=O)c3oc4ccc(F)cc4c(=O)c3C2c2ccc(O)cc2)nc1C (stereo unspecified)
[55] Cc1ccc(Nc2nc(C(N)=O)c(NC(=O)c3ccccc3Br)s2)cc1
assay / compound	49	50	51	52	53	54	55
GIV-Gai inh	97	-79*	104	108	107	104	98
Sa growth inh	130	179	/	104	118	107	98
HCMV NEC inh	-17	/	-34	-17	/	/	/
Sa growth inh second temp	85	95	/	80	85	90	91

# Compounds above containing two or more sulfur atoms (2):
[49] CCN1C2OC(C3OC4C(O3)N(CC)S(=O)(=O)N4CC)OC2N(CC)S1(=O)=O (stereo unspecified)
[53] Cc1nc2sccn2c(=O)c1S(=O)(=O)N1CCN(c2ccc(F)cc2)CC1
assay / compound	49	53
GIV-Gai inh	97	107
Sa growth inh	130	118
HCMV NEC inh	-17	/
Sa growth inh second temp	85	85
